Compound activity: PubChem BioAssay, National Center for Advancing Translational Sciences (NCATS)
TRPV1 PAM: potentiators of human vanilloid receptor 1 (TRPV1). AID 540277. Q8NER1. TRPV1-expressing cells, Fluo-8 calcium influx, capsaicin EC20 potentiation; host cell line not named in the record; control for the full effect not named in the record. potentiation, % at 8.33 µM. 320,000 tested, 0.02% active; active means potentiation above 80%; inconclusive means 30% to 80%; inactive means below 30%; further: 0% is about no effect
Target sequence (Q8NER1 whole entry, looked up): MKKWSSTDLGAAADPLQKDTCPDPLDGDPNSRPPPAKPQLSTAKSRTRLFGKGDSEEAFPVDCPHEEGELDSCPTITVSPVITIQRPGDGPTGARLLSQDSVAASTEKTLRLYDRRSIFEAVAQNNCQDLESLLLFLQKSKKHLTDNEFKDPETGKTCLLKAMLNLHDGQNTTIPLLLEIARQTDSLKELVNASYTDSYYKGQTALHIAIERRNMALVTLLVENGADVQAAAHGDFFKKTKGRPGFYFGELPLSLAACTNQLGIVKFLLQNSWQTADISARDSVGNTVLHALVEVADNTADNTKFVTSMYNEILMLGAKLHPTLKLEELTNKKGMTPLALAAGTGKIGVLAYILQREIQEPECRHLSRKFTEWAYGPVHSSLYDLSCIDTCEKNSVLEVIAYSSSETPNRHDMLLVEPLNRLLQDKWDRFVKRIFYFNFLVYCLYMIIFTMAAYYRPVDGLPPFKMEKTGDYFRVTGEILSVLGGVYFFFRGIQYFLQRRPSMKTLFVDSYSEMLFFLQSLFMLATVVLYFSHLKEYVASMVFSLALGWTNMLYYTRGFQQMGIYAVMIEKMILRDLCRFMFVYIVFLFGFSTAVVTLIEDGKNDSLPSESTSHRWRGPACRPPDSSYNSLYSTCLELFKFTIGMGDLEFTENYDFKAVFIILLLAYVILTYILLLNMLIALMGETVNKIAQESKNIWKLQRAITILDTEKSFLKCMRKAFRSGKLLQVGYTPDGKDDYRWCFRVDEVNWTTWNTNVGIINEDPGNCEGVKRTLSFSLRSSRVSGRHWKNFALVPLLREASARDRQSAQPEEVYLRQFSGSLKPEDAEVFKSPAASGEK
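TRPV1-expressing cells were cultured overnight at 35.5C and loaded with Fluo-8 calcium dye for 40 to 90 min at room temperature. After a 10 s baseline, compound was added and calcium influx was read kinetically for 3 min (ex 480/em 520 nm).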
gsp antag: antagonizes gsp, the McCune-Albright syndrome mutation; gsp-mutant cells, cAMP HTRF, 30 min; control for the full effect not named in the record; Potency, µM (top dose mostly 76.9 µM), without a hit: at the highest dose activity change, negative = inhibition, most hits filed as inhibitors; 340,000 tested, 0.4% active; AID 624288; active = falling curve of any shape with a large fitted effect; inconclusive = falling curve, mostly with a smaller effect; inactive = flat or rising curve; cell line not stated here;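 further: intracellular cAMP measured with PDE inhibitor Ro 20-1724 present during compound exposure; potency means the concentration at half of the fitted maximal effect; on the % scale 0 is the no-effect control and ±100 the full control effect; nearly all actives have a fitted effect of over 65% in size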
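HTRF cAMP read-out (cAMP-d2 plus anti-cAMP antibody-K in lysis buffer, 30 min RT). Before lysis, cells are exposed to compounds with […] for 30 min at 37C in DPBS containing Ca/Mg, BSA and Tween 20.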
Sfp PPTase inh: blocks B. subtilis Sfp PPTase activity; Q9F4F7; Biochemical Sfp PPTase activity, qHTS; Potency, µM, inactives show max response, negative = inhibition, hits mostly inhibitors; 310,000 tested, 3.5% active; AID 1490; active means well fitted inhibition curve with a large enough effect; inconclusive means small, poorly fitted or top-dose-only effect, or another doubt; inactive means no such curve, though single readings can be large or run the other way;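 further: the enzyme is Sfp with the accession as filed and its product quenches rhodamine fluorescence; potency means the concentration at half of the fitted maximal effect; 0% = enzyme reaction without inhibitor and -100% = no enzyme wells; top concentration of the series not given in the record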
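Fluorescence-quenching assay: 15 nM Sfp-PPTase preincubated 15 min at room temperature with compound, then 5 uM rhodamine-CoA and 12.5 uM BHQ-2-labelled YbbR peptide added. Fluorescence (ex 525/em 598 nm) read at start and after 30 min; difference gives rate.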
ClpP mod: qHTS Assay for Activators of ClpP. 340,000 tested, 1.9% active. ATP-dependent Clp protease proteolytic subunit (Bacillus subtilis (strain 168)), P80244. AID 651965, 2013. purified B. subtilis ClpP, FRET peptide cleavage, 20 min. Potency, µM (titrated, usually from 57.5 µM), inactives show top-dose activity change, negative = active; active = well fitted falling curve with a large enough effect; inconclusive = small, poorly fitted or top-dose-only effect; inactive = no such curve, though single readings can be large or run the other way; further: potency means the concentration at half of the fitted maximal effect; the source files actives as falling curves though it sought activators and does not explain the sign; nearly all actives have a fitted effect of over 65% in size; many hits overshoot -100%
Target sequence (P80244 whole entry, looked up): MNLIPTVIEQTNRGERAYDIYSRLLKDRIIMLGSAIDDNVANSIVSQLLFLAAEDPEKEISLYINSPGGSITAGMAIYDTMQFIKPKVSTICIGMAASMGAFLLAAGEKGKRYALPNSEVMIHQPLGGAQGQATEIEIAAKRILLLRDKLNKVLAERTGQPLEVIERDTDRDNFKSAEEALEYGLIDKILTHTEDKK
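FRET quenching reversal measured ClpP activation: 10 microg/mL B. subtilis ClpP at pH 8 with the FRET-FV decapeptide, read at 430 nm after 320 nm excitation. The 20-min minus 0-min signal was scaled between DMSO/no-enzyme wells and ADEP (5.8 microM final).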
Menin-MLL FL inh: inhibitors of human menin-MLL interaction, wild-type MLL peptide; FP activity change, % at 61.4 µM; AID 1766; Fluorescence polarization, fluorescein-MLL peptide displacement from menin; 290,000 tested, under 10 active; inconclusive = falling polarisation curve, or a change in total fluorescence; inactive = total fluorescence flat and polarisation flat or rising; no compound was filed as active; the % refers to the polarisation; negative = inhibition;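 further: % of control where 0% means no effect; inhibitors lower the polarisation; unlabelled MLL peptide was the positive control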
TRPML1 blocker: human mucolipin-1 channel inhibition; Q9GZU1; TRPML1-inducible cells, Ca2+ dye fluorescence, FDSS; hits give low values; inhibition of EC80 agonist-evoked calcium signal; activity change, negative = inhibition, % (test concentration not listed); 390,000 tested, 0.02% active; AID 624415; in the data active means activity change below about -50%; inconclusive means about -30% to -50%; inactive means above about -30%;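 further: stimulus is agonist 54-4 at its EC80 concentration; on the % scale 0 is the no-effect control and ±100 the full control effect; compound concentration not given in the record; the text of the record puts the active cut at -80%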
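TRPML1-DL cells, Tet-induced overnight (~16 h, 37 °C) at 1,500 cells/well, were loaded with Ca8 no-wash dye plus quencher for 45-90 min at room temperature. Compounds were pinned during FDSS kinetic reading; agonist 54-4 at EC80 (4 uM final) then added.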
gsp ag: activates gsp, the McCune-Albright syndrome mutation; 340,000 tested, 0.13% active; gsp mutant cells, cAMP HTRF, 30 min; control for the full effect not named in the record; Potency, µM (highest dose often 76.9 µM), without a hit: top-dose activation (cAMP increase), hits mostly activators; active = well fitted activation curve with a large enough effect; inconclusive = small, poorly fitted or top-dose-only effect, or another doubt; inactive = no such curve, though single readings can be large or run the other way; cell line not stated here;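 further: phosphodiesterase inhibitor Ro 20-1724 added with compounds to block cAMP breakdown; potency means the concentration at half of the fitted maximal effect; nearly all actives have a fitted effect of over 60% in size; about a fifth of the inactives were tested at one dose only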
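Cells stably selected in G418 were plated at 2000/well, grown 16-24 hr, then given compounds in DMSO with the PDE inhibitor […] (300 uM solution added) for 30 min at 37C; cAMP was read by HTRF.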
Active calls of the source: *; ? = inconclusive; . = not tested or not shown; [ ] = dose if it differs, or a comment.

SMILES	TRPV1 PAM	gsp antag	Sfp PPTase inh	ClpP mod	Menin-MLL FL inh	TRPML1 blocker	gsp ag
N#C/C(C(=O)NCc1ccccc1)=C1/N=C(NC(=O)c2ccco2)c2ccccc21	16	-16%	0%	.	?	-12	0%
O=C(Nc1cccc(Cl)c1)c1ccc2c(=O)n3c(nc2c1)CCCCC3	-6	-19%	-2%	-0.3%	2.8	-13	15%[15.4 µM]
NC(=O)c1c(C(F)(F)F)cc(-c2ccccc2)nc1NCCO	2	4%	15%	22µM*	6.6	7	17%
O=C1N=c2ccccc2=C1c1sc(NS(=O)(=O)Cc2ccccc2)nc1O	1	0%	-5%	2.0%	4.0	47	-13%
C/C(=N/NC(=O)CCC(=O)Nc1ccc(Br)cc1)c1ccc(Br)cc1	3	25%	1%	-0.1%	-9.5	3	16%[15.4 µM]
c1cnc2ccc(C(c3nnnn3C3CCCC3)N3CCN(c4nc5ccccc5s4)CC3)cc2c1 (configuration not stated)	-19	4%	-8%	-1.5%	7.7	25	-4%
COCc1ccc(C(=O)N2CCCC(N(C)Cc3ccccc3)C2)s1 (configuration not stated)	-4	6%	5%	-1.7%	.	0	-2%
Cc1ccccc1NC(=S)NCc1cccn1C	-7	2%	18%	0.5%	.	-13	-2%
O=c1[nH]c(COc2ccccc2)nc2ccccc12	?	10%	9%	-2.3%	-0.4	-11	?
CCN(C(=O)CN1C(=S)NC(C)(C)CC1C)c1ccc(C)c(C)c1 (configuration not stated)	3	-1%	-2%	.	-2.1	-18	5%[15.4 µM]
Cc1ccc(S(=O)(=O)CCSc2nc(C)cc(C(F)(F)F)c2C#N)cc1	7	-18%	0%	-2.8%	1.4	5	-68%[inhibitor]
CCc1ccc(OCCOCCN2CCN(C)CC2)cc1	14	10%	?	0.1%	0.0	.	-2%
CC1CC1C(=O)OCC(=O)NCc1ccccc1 (configuration not stated)	.	6%	.	1.3%	.	39	23%[15.4 µM]
OC12CCCCC1C(c1ccc3c(c1)OCO3)N(Cc1cccc(F)c1)CC2 (configuration not stated)	-6	5%	5%	-1.2%	-0.2	9	2%
COc1cccc(OCCNS(=O)(=O)c2cccc([N+](=O)[O-])c2)c1	-2	4%	8%	2.3%	3.0	-18	?
COCCN1Cc2cccc(C(=O)NCc3cccnc3)c2C1=O	.	2%	16%	-1.6%	-1.0	-12	?
CN1CCN(C(=S)Nc2ccc(Cl)c(Cl)c2)CC1	-19	12%	-7%	0.6%	3.2	-4	14%
CC1CCN(C(=O)COC(=O)c2cc(S(=O)(=O)N3CCOCC3)ccc2Cl)CC1	-19	-10%	.	.	.	12	3%[15.4 µM]
O=C1/C(=C/C=C/c2ccccc2)Oc2c1ccc(O)c2CN1CCN(CCO)CC1	-7	-23%	-1%	-12%	?	-8	4%
CC(NC(=O)C1CCC(CNC(=O)[C@@H]2Cc3ccccc3CN2)CC1)c1ccccc1 (some centres not stated)	3	6%	14%	1.0%	2.1	-13	?
CN1C(=O)[C@H]2[C@@H](C3CC3)N3C(=O)CN(Cc4ccc(-c5ccccc5)cc4)C(=O)[C@@]3(C)[C@H]2C1=O	-5	0%	15%	-0.5%	1.6	10	.
CC(C)(C)C(=O)Nc1nnc(SCC(=O)NC2CCCC2)s1	3	1%	17%	.	-12	9	-8%[15.4 µM]
CC1=C(C(=O)Nc2cc(C(=O)NCc3ccccc3)ccc2C)SCCO1	.	.	.	-3.3%	.	11	-15%
Cc1ccc(OCC(=O)Nc2ccc3c(c2)nc(CCN2CCOCC2)n3C)cc1	-1	13%	8%	-4.3%	-0.1	28	1%
Nc1c(C(=O)NCc2ccc3c(c2)OCO3)nnn1-c1ccc(OC(F)(F)F)cc1	7	4%	0%	1.5%	4.0	-26	4%
Cc1ccn2cc(-c3ccc(NS(=O)(=O)c4ccccc4)cc3)nc2c1	0	?	-1%	-14%	6.6	-1	20%
Cc1c(C)c2cc3c(C)coc3cc2oc1=O	-4	7%	-21%	-22%	2.9	5	-2%
COc1ccccc1N/C=C1/Sc2cc(Cl)ccc2NC1=O	-11	.	-4%	.	?	.	.
C/C(Cc1ccccc1)=N\NC(=O)CNC(=O)c1ccccc1Br	6	8%	?	-0.7%	7.1	7	-38%[inhibitor]
C/C(=N\NC(=S)NC1CCCCC1)c1ccc(C)o1	-9	-18%	-19%	.	-0.4	-8	-22%
O=C(Nc1ccc(Cl)c(S(=O)(=O)N2CCCCC2)c1)c1ccncc1	-28	-9%	.	-3.7%	.	-10	-3%
CCn1ncc(/C=N\NC(=O)COc2ccccc2)c1C	24	10%	11%	0.9%	1.8	19	-42%[inhibitor]
O=C(N/N=C/c1ccccn1)C1CC1	6	-3%	79µM*	1.9%	2.7	47	2%
CCCCS(=O)(=O)N1CCC(C(=O)Oc2ccccc2OC)CC1	25	1%	-4%	-3.1%	0.6	-12	?
COc1ccccc1N(CC(=O)Nc1ccc(F)c(F)c1)S(C)(=O)=O	21	-11%	3%	0.0%	?	9	-2%
O=C(COc1ccc(F)cc1)NCC1(N2CCOCC2)CCCCC1	-12	8%	.	1.0%	.	7	?

Look-ups from the entries so far:
In TRPV1 PAM, COc1ccccc1N/C=C1/Sc2cc(Cl)ccc2NC1=O is listed with -11
In gsp ag, C/C(=N\NC(=S)NC1CCCCC1)c1ccc(C)o1 is listed with -22%

In a second layout: results already given.
Structure,TRPV1 PAM,gsp antag,Sfp PPTase inh,ClpP mod,Menin-MLL FL inh,TRPML1 blocker,gsp ag
C/C(=N\NC(=S)NC1CCCCC1)c1ccc(C)o1,-9,-18%,-19%,.,-0.4,-8,-22%
O=C(Nc1ccc(Cl)c(S(=O)(=O)N2CCCCC2)c1)c1ccncc1,-28,-9%,.,-3.7%,.,-10,-3%
CCn1ncc(/C=N\NC(=O)COc2ccccc2)c1C,24,10%,11%,0.9%,1.8,19,-42%[inhibitor]
O=C(N/N=C/c1ccccn1)C1CC1,6,-3%,79µM*,1.9%,2.7,47,2%
CCCCS(=O)(=O)N1CCC(C(=O)Oc2ccccc2OC)CC1,25,1%,-4%,-3.1%,0.6,-12,?
COc1ccccc1N(CC(=O)Nc1ccc(F)c(F)c1)S(C)(=O)=O,21,-11%,3%,0.0%,?,9,-2%
O=C(COc1ccc(F)cc1)NCC1(N2CCOCC2)CCCCC1,-12,8%,.,1.0%,.,7,?

(list continues)
SMILES	TRPV1 PAM	gsp antag	Sfp PPTase inh	ClpP mod	Menin-MLL FL inh	TRPML1 blocker	gsp ag
O=c1oc2ccccc2cc1-c1cn(-c2ccccc2)c(=S)[nH]1	-7	10%	35µM*	15%	10	5	14%[15.4 µM]
Cn1c(CCC(=O)Nc2ccc(S(C)(=O)=O)cc2)nc2cc(S(=O)(=O)N3CCOCC3)ccc21	.	9%	.	-4.2%	.	-27	18%
COc1ccccc1NS(=O)(=O)c1ccc2oc(=O)ccc2c1	6	2%	14%	0.8%	-1.8	-8	-4%[15.4 µM]
N#Cc1nc(Cc2cccc3ccccc23)oc1NCc1ccc2c(c1)OCO2	1	13%	7%	-3.5%	-1.7	-2	25%
O=C(O)C1CCC(N2C(=O)c3cccc([N+](=O)[O-])c3C2=O)CC1 (configuration not stated)	-2	-19%	13%	0.6%	1.0	12	-3%[15.4 µM]
O=C(Nc1ccccc1Cl)C1(c2ccccc2)CC1(Cl)Cl (configuration not stated)	-9	-4%	-4%	-0.7%	2.3	-24	-9%
CCn1c(SCC(=O)Nc2ccc(F)cc2)nc2ccccc2c1=O	-16	-9%	4%	2.7%	0.5	-28	29%
CCC(C(=O)NCCc1ccc(OC)cc1OC)n1nc(C)n2c(cc3occc32)c1=O (configuration not stated)	6	-1%	-4%	-6.0%	-1.1	45	-4%
CCCCCN1CC(O)=C(c2nc(-c3ccc(Cl)cc3)cs2)C1=N	18	7%	-7%	-3.3%	1.5	-4	21%
Cc1ccc(S(=O)(=O)N2CCC(C(=O)Nc3cccnc3)CC2)cc1	.	3%	.	-0.5%	.	22	-54%[inhibitor]
CC(C)c1ccc(/C=N/NC(=O)c2cccc(S(=O)(=O)N3CCOCC3)c2)cc1	-7	4%	-4%	.	3.2	-20	-8%
CCOCCCNC(=O)c1c(-c2ccccc2)noc1C	1	10%	6%	-3.9%	2.3	-15	1%

Complete entries, looked up by structure:
Listed for `Cn1c(CCC(=O)Nc2ccc(S(C)(=O)=O)cc2)nc2cc(S(=O)(=O)N3CCOCC3)ccc21` : TRPV1 PAM = .; gsp antag = 9%; Sfp PPTase inh = .; ClpP mod = -4.2%; Menin-MLL FL inh = .; TRPML1 blocker = -27; gsp ag = 18%
Listed for `N#Cc1nc(Cc2cccc3ccccc23)oc1NCc1ccc2c(c1)OCO2` : TRPV1 PAM = 1; gsp antag = 13%; Sfp PPTase inh = 7%; ClpP mod = -3.5%; Menin-MLL FL inh = -1.7; TRPML1 blocker = -2; gsp ag = 25%

Continued.
SMILES	TRPV1 PAM	gsp antag	Sfp PPTase inh	ClpP mod	Menin-MLL FL inh	TRPML1 blocker	gsp ag
O=C(NCC1CCCO1)C1CCCN1C(=O)Nc1ccc(Cl)c(Cl)c1 (configuration not stated)	6	3%	10%	-1.4%	-0.6	9	-10%
O=C(/C=C/c1ccccc1)N1CCCN(C(=O)/C=C/c2ccccc2)CC1	9	-6%	11%	3.0%	5.6	10	18%
Cc1ccc2oc3c(c(=O)c2c1)C(c1cccc(Cl)c1)N(CCCN1CCOCC1)C3=O (configuration not stated)	-15	-2%	8%	-8.8%	1.8	22	-46%
O=C(CN1CCC(NC(=O)c2ccccc2F)CC1)Nc1ccc2c(c1)OCO2	-13	-4%	17%	-2.2%	-0.3	-14	39%
CCOC(=O)CCC(=O)Nc1ccccc1C(N)=O	-1	4%	5%	-3.4%	-2.8	-6	7%
